Screening data as filed in PubChem BioAssay.
GLA inh pH 4.5 = alpha-galactosidase A (human) inhibition, pH 4.5; P06280; purified enzyme, 4-MU-alpha-Gal fluorescence, pH 4.5; activity change, negative = inhibition, % at 105 µM; 230,000 tested, under 10 active; AID 1467; inconclusive = small, poorly fitted or top-dose-only inhibition, or a rising curve; inactive = flat fitted curve, though single readings scatter; no compound was filed as active;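 further: 0% = full activity with enzyme and -100% = basal without enzyme; dose as in the result columns while the protocol names 77 µM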
Target sequence (P06280 whole entry, looked up): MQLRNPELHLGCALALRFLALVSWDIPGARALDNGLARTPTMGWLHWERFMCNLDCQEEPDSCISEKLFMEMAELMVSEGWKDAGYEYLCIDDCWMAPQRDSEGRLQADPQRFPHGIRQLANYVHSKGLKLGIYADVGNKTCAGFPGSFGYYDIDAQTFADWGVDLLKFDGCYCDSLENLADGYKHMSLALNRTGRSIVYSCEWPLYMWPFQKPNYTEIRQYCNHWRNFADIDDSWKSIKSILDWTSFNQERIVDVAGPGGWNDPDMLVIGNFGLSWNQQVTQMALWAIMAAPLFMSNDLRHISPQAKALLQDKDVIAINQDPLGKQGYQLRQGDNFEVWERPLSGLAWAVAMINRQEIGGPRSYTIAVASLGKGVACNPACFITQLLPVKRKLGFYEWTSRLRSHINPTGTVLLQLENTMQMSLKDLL
Rango complex inh = Rango-importin beta binding inhibition; Q14974; Rango CFP/YFP FRET sensor + importin beta, 45 min; Potency, µM (doses to about 92.2 µM), for the others: at the highest dose inhibition of complex formation; hit rate 0.031% among 340,000; AID 540263; active = rising FRET ratio curve, often small or poorly fitted; inconclusive = mostly compound fluorescence or quenching in the first reads; inactive = flat curves in all reads;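 further: potency means the concentration at half of the fitted maximal effect; 0% = DMSO wells and 100% = buffer wells lacking importin beta; nearly all actives have a fitted effect of over 15% in size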
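Inhibition scored from the CFP 486 nm/YFP 530 nm FRET ratio 45 min after adding 0.125 microM importin beta to 50 nM Rango biosensor preincubated 5 min with compound (room temperature, PBS with DTT, Tween-20, BSA). No-importin wells as positive control.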
Rango release inh = prevents RanGTP from dissociating the Rango-importin beta complex | O95149+P62826 | Biochemical FRET Rango-importin beta, RanGTP-induced dissociation | Potency, µM (doses to about 46.1 µM), without a hit: at the highest dose activity change, negative = inhibition | hit rate 0.071% among 340,000; active means falling FRET ratio curve, often poorly fitted, with flat reads before Ran was added; inconclusive means other falling curves, or compound fluorescence or quenching; inactive means flat or rising ratio curve;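 further: potency means the concentration at half of the fitted maximal effect; % of control where 0% means no effect; nearly all actives have a fitted effect of over 45% in size; -100% = wells without RanGTP and RCC1; the record marks most hits as doubtful in a second field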
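FRET read at 45 min, room temperature: inhibitors block the CFP/YFP signal rise when RanGTP (0.6 uM Ran, 2 mM GTP, 0.2 uM RCC1) frees Rango (0.1 uM) from importin beta (0.25 uM). Pre-read after 5 min compound exposure flags interference.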
miR-21 reporter = raises the signal of a miR-21 reporter | Potency, µM (highest dose often 38.3 µM), for the others: top-dose reporter change, positive = more light | HeLa miR-21 FLuc reporter, luciferase, 48 h | 340,000 tested, under 10 active; active = well fitted rising curve with a large enough effect; inconclusive = small, poorly fitted or top-dose-only effect; inactive = no such curve, though single readings can be large or run the other way;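 further: % of control where 0% means no effect; miR-21 action dims this reporter so a rising signal means less miR-21 action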
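Using DMEM plus 10% FBS, HeLa miR-21-FLuc cells are incubated with test compounds (final up to about 40uM) for 48 hours; firefly luciferase signal is then imaged following reagent-mediated lysis.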
The depositor's hits bear a star; ? = inconclusive; nt = no result given; & = joins results of further samples; [ ] = another dose, or the depositor's remark.

GLA inh pH 4.5	Rango complex inh	Rango release inh	miR-21 reporter	molecule
nt	-0.7%	1.0%	nt	CCN(c1ccccc1)S(=O)(=O)c1ccc(C(=O)NCc2ccccn2)cc1
-26.9	2.2%	1.1%	-8.5%	CCOc1ccccc1NC(=S)N(CCCN1CCOCC1)Cc1cn(C)c2ccccc12
5.3	1.1%	-21.0%	-3.1%	CCCC(=O)c1cc(F)c(N2CCN(CCC#N)CC2)cc1C
-3.4	-1.3%	-3.8%	-18.4%	Clc1ccc(/C=N\Nc2ccccc2)cc1
nt	2.8%	-3.2%	1.2%	Cc1ccc(S(=O)(=O)/N=C(/Nc2ccc(F)cc2F)c2ccc(F)cc2)cc1
nt	-3.1%	6.5%	-0.1%	CCCCNC(=O)c1cn(CC)c2cc(N3CCN(C(=O)c4ccco4)CC3)c(F)cc2c1=O
2.1	2.5%	0.8%	-0.3%	O=C(Nc1ccccc1)c1ccc(NCCN2C(=O)CCC2=O)c([N+](=O)[O-])c1
10.8	-2.0%	17.7%	2.7%	CC1CN(c2nnc(-c3ccccc3)c3ccccc23)CC(C)O1 (stereo not given)
-12.3	0.5%	2.1%	2.5%	O=S(=O)(NCCNS(=O)(=O)c1cccs1)c1cccs1
1.1	-5.3%	-6.6%	-5.1%	O=C(CN1CCc2ccccc21)Nc1ccc2c(c1)OCO2
nt	1.1%	1.7%	0.4%	CN(C(=O)c1ccccc1[N+](=O)[O-])c1ccccc1C(=O)NCc1ccccc1
-3.1[21.1 µM]	0.1%	-6.3%	-42.3%	CCc1ccc(NC(=O)N2CCC(c3ccccc3)C2)cc1 (stereo not given)
-3.2	8.4%	24.5%	-7.1%	CC1(c2ccc(Cl)c(Cl)c2)NC(=S)N2C1NC(=S)N2c1ccccc1 (stereo not given)
5.7	3.6%	-1.4%	-0.5%	CCNc1nc(NCC)nc(OCCOC(C)=O)n1
6.5	0.0%	17.2%	-10.8%	COc1ccc(-c2cc(C(=O)NCCc3ccc(S(N)(=O)=O)cc3)c3ccccc3n2)cc1
2.2	-1.2%	-14.4%	5.9%	Cc1cccc(NC(=S)NC(C)C(c2cccs2)N2CCN(C)CC2)c1C (stereo not given)
10.1	-0.6%	-5.1%	-55.1%	Cc1cc2ncc(-c3ccc(Cl)cc3)c(N)n2n1
nt	-1.9%	-17.1%	3.6%	COc1ccc(-c2coc3c(C)c4oc(=O)c(CC(=O)O)c(C)c4cc23)cc1
-3.7	1.4%	5.5%	0.8%	CC(C)(C)Cc1nnc(NC(=O)c2cc(-c3ccccc3)nc3ccccc23)s1
-2.1	5.8%	0.0%	-14.1%	O=C(Cc1cccs1)N1CCC(c2nc3c(nnn3Cc3ccc(F)cc3)c(=O)[nH]2)CC1
nt	?	33.8%	nt	CCC(C(=O)OCC(=O)Nc1ccc2[nH]c(=O)[nH]c2c1)c1ccccc1 (stereo not given)
4.8	?	7.9%	-8.9%	CCS(=O)(=O)Nc1cccc(C2=NN(S(=O)(=O)c3ccccc3)C(c3cccs3)C2)c1 (stereo not given)
nt	1.6%	-17.1%	-5.3%	CCOC(=O)c1c(C)[nH]c(C)c1S(=O)(=O)N(C)CC(=O)Nc1ccccc1
-0.8	?	?	-10.6%	O=C1CCNc2c(Cl)cc(Cl)cc21
-7.3	?	?	-10.0%	COc1ccc(CCn2c(=N)c(C(=O)N3CCN(C)CC3)cc3c(=O)n4ccccc4nc32)cc1
1.2	1.2%	7.8%	2.4%	Cc1csc(=Nc2c(C)n(C)n(-c3ccccc3)c2=O)n1-c1ccccc1
-23.8	2.3%	2.8%	23.8%	CC(C)(C)c1cc(C(=O)NNc2cc(C(F)(F)F)ccc2Cl)n(Cc2ccccc2)n1
nt	-0.5%	-4.3%	-5.7%	Cc1cc(Cl)c2oc(C(=O)N(C)CCCN3CCOCC3)c(C)c2c1
3.0	-0.6%	0.7%	-2.1%	Cc1ccn2c(CNCCCn3cccn3)c(C(=O)N3CCCCCC3)nc2c1
-5.3	2.3%	-4.9%	5.4%	C/C(=N/NC(=O)CNC(=O)c1ccc2c(c1)OCO2)c1ccc2c(c1)CCCC2
nt	-1.2%	?	0.6%	O=C(O)CCCCCCCCc1cn(CCc2c[nH]c3ccccc23)nn1
-4.5	-0.3%	-5.2%	-9.8%	C=CCNC(=S)NNC(=O)c1ccc2c(c1)OCO2
1.0	2.9%	-13.4%	-16.0%	CCOC(=O)c1cnc(-c2cccc(OC)c2)[nH]c1=O
-12.0	-0.9%	11.1%	-35.7%	CCOC(=O)CCn1nc(-c2ccccc2)cc1N
2.1	3.3%	3.4%	-4.6%	OC(COCc1ccccc1)CN1CCCC1 (stereo not given)
6.0	-5.7%	4.8%	-1.7%	CC1CCC(NC(=O)CN(C)S(=O)(=O)c2cccc3cccnc23)CC1 (stereo not given)
nt	-2.6%	-1.7%	0.7%	Cc1ccc(NC2CCCN(C(=O)c3ccnc(Cl)c3)C2)cc1C (stereo not given)
5.5	-1.1%	-11.3%	-0.8%	COC(=O)[C@@H](NC(=O)NCc1ccccc1F)C(C)C
?	1.5%	12.6%	8.0%	CC(=O)Nc1ccc(S(=O)(=O)Nc2cccc(NC(=O)C(C)(C)C)c2)cc1
nt	?	-17.2%	nt	CN(CC(=O)Nc1ccc(Cl)cc1)C(=O)CCc1nc2sc3c(c2c(=O)[nH]1)CCCC3
nt	2.9%	27.9%	nt	Cc1ccc(C(=O)NC(C)c2ccc(-n3ccnc3)cc2)o1 (stereo not given)
2.8	-0.2%	-6.7%	-90.4%	CCC(C)c1ccc(OCc2ccc(C(=O)OC)o2)cc1 (stereo not given)
-0.8	1.0%	-5.7%	?	CCC(=O)NC(c1ccc(OC)c(OC)c1)c1cc(Cl)c2cccnc2c1O (stereo not given)
nt	?	-11.9%	-6.2%	CCOC(=O)C1CCN(C2CCN(C(=O)c3oc4c(F)cccc4c3C)CC2)CC1
nt	-0.5%	-4.7%	-13.1%	CCCC(=O)N(CCN1CCOCC1)c1nc2c(OC)ccc(C)c2s1
4.7	-1.6%	-9.9%	-0.6%	COc1cc(N)n(S(=O)(=O)c2ccc(C)cc2)n1
nt	-1.0%	2.9%	nt	O=C(CN1CCN(c2cccc(C(F)(F)F)c2)CC1)N(C1CC1)C1CCS(=O)(=O)C1 (stereo not given)
1.8	-2.1%	2.1%	-1.6%	O=C(O)COc1ccc(NC(=O)c2ccc(NC(=O)c3ccco3)cc2)cc1
nt	1.0%	-17.1%	-0.4%	COc1ccc(N2C(=NC(=O)C3CCCCC3)SC3CS(=O)(=O)CC32)c(OC)c1 (stereo not given)
nt	1.8%	3.0%	nt	CC(C)NC1(C(N)=O)CCN(Cc2ccccc2)CC1

Later entries:
GLA inh pH 4.5	Rango complex inh	Rango release inh	miR-21 reporter	molecule
nt	-0.2%	-3.5%	-36.7%	Cc1ccccc1NC(=O)c1sc(NC(=O)C2CC2)nc1C
1.4	0.2%	10.9%	-10.9%	CCOC(=O)Nc1cccc(NC(=O)c2cc(OC)cc(OC)c2)c1
-3.9	3.8%	-4.7%	-18.7%	Oc1cccnc1CCc1ccccc1
nt	3.9%	7.8%	0.8%	COc1ccc(N2CCN(S(=O)(=O)CCNC(=O)C3CCCCC3)CC2)cc1
-4.2	-3.5%	0.2%	11.0%	COc1ccc(F)cc1S(=O)(=O)Nc1ccc(C)cc1
nt	9.8%	-0.8%	nt	CS(=O)(=O)c1ccc(NC(=O)CCN2C(=O)C3CC=CCC3C2=O)cc1 (stereo not given)
nt	-1.8%	?	9.5%&15.2%	Cc1cccc(NC(=O)COc2ccc(-c3nn(C)c(=O)c4ccccc34)cc2)c1
10.9	2.5%	15.1%	-1.1%	Cc1cc(NC(=O)c2ccc(C#N)cc2)n(-c2ccccn2)n1
11.1	-3.0%	-16.5%	2.9%	COc1ccc(NC(=O)COC(C)=O)cc1OC
nt	-0.3%	0.1%	nt	O=C(COC(=O)C1CC1)NCc1ccc(Cl)cc1Cl

Two entries from above, as a markdown table.
| mol | GLA inh pH 4.5 | Rango complex inh | Rango release inh | miR-21 reporter |
| --- | --- | --- | --- | --- |
| Cc1cc(NC(=O)c2ccc(C#N)cc2)n(-c2ccccn2)n1 | 10.9 | 2.5% | 15.1% | -1.1% |
| COc1ccc(NC(=O)COC(C)=O)cc1OC | 11.1 | -3.0% | -16.5% | 2.9% |

New compounds follow
GLA inh pH 4.5	Rango complex inh	Rango release inh	miR-21 reporter	molecule
3.9	-2.5%	31.2%	-1.1%	CSCCC(NC(=O)c1ccc(Cl)cc1)C(=O)OCC(=O)Nc1ccc(C#N)cc1 (stereo not given)
nt	3.1%	-18.1%	0.0%	CN1C(=O)[C@H]2[C@@H](C3CC3)N3C(=O)CN(Cc4ccccn4)C(=O)[C@@]3(Cc3ccccc3)[C@H]2C1=O
nt	-0.7%	1.8%	1.4%	COc1ccc(CNC(=O)CCC(=O)N2CC(C)Oc3ccccc32)cc1 (stereo not given)
nt	?	?	0.0%	CCC1CCCCN1CCCNC(=O)c1ccc2c(c1)NC(=O)CN2C (stereo not given)
nt	-1.4%	1.2%	-7.0%	CC[C@H](CO)NCCN[C@H](CC)CO
7.1	2.7%	6.2%	3.7%	CCOc1ccccc1Oc1c(C)oc2cc(OC(=O)N3CCOCC3)ccc2c1=O
nt	-3.2%	1.0%	-10.5%	C=CCNC(=O)N1CCC(c2nc3ccccc3s2)CC1
nt	-1.8%	12.9%	nt	COC(=O)C1=C[C@@H](C(=O)OC)[C@@H]2C3=C(C(=O)[C@]2(CC(C)C)NC(=O)c2ccccc2)[C@H](C)n2c(=O)n(-c4ccccc4)c(=O)n2[C@@H]3C1
-0.1	0.7%	3.9%	-11.3%	COc1ccc(-n2nnnc2SCC(=O)Nc2nnc(C)s2)cc1OC
nt	3.8%	-2.0%	3.2%&0.3%	Cc1cc(C)c(S(=O)(=O)NCCc2cc3ccc(C)c(C)c3[nH]c2=O)c(C)c1
1.6	-2.3%	-2.7%	-8.0%	O=C(COc1ccccc1)Nc1nonc1NC(=O)COc1ccccc1
5.7[21.1 µM]	4.4%	-8.0%	-16.2%	O=C(c1ccc(N2CCC3(CC2)OCCO3)c([N+](=O)[O-])c1)N1CCOCC1
0.5	-0.5%	-16.7%	-51.5%	CC1(C)CC(=O)c2cnc(N3CCc4ccccc4C3)nc2C1
-0.3	2.4%	13.6%	2.7%	Cc1cn2c(nc1=O)OC1CC2OC1CO (stereo not given)
nt	1.1%	-6.8%	-2.4%	O=C(c1ccc(F)cc1)N1CCN(c2ccccn2)CC1
nt	1.3%	26.7%	0.5%	O=C(Nc1ccc(Br)cc1Br)C1CC(=O)N(Cc2ccccc2)C1 (stereo not given)
nt	?	-15.6%	nt	CCC(C)N(C(=O)Cn1nc(C)c([N+](=O)[O-])c1C)C1CCS(=O)(=O)C1 (stereo not given)
9.3	-2.0%	-12.4%	20.5%	Oc1ccc2ccccc2c1C=NCc1cn2ccsc2n1
nt	-1.7%	?	0.6%	CC(CCc1ccco1)NC(=O)CCc1nnc2ccc(NCc3ccccc3)nn12 (stereo not given)
3.0	-0.2%	1.8%	-8.5%	COC(=O)C1(S(=O)(=O)C2(C(=O)OC)CCCC2)CCCC1
-1.2	3.8%	0.3%	1.8%	CCC(C)[C@H](NC(=O)N1CCN(C)CC1)C(=O)OC (stereo not given in full)
0.1	6.9%	2.3%	4.2%	Cc1cc(NC(=O)CSc2nc3ccccc3n2CC(C)C)no1
1.9	8.3%	-0.3%	-4.5%	COCCCNC(=S)N1CCN(S(=O)(=O)c2ccc(OC)cc2)CC1
?	0.2%	27.9%	1.0%	CCCCOC(=O)c1sc2nc(N3CCOCC3)c3c(c2c1N)CC(C)(C)OC3
1.6	-0.4%	1.6%	-8.5%	O=C(c1ccc2snnc2c1)N1CCSCC1
nt	1.9%	-8.2%	-44.7%	COc1ccc(OC)c(-c2csc(NC(=O)Cc3ccccc3F)n2)c1
-1.4	0.0%	0.5%	-2.5%	O=C(COC(=O)[C@H](Cc1ccccc1)NC(=O)c1ccco1)NCc1ccccc1
-3.6	-2.2%	4.4%	7.7%	CC[C@@H](C)C(NC(=O)OC(C)(C)C)c1cn([C@@H](Cc2cc3ccccc3[nH]2)C(=O)N2CCN(C(=O)OC(C)(C)C)CC2)nn1 (stereo not given in full)
3.8	nt	nt	0.5%	CCCC(=O)Nc1cccc(C(=O)Nc2ccccc2OCC)c1

Only part of the results is shown; rates above refer to the full screens.
